# Anaer choline gr: growth inhibitors of anaerobic choline-fed gram-negatives, minimal medium, absorbance; calls only; Gram-negative bacterium anaerobic choline minimal medium; active compounds read low; many inactives read as strong as hits in the columns shown; 55,000 tested, 0.2% active;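 active = growth z-score on choline under -2 at 7 or 20 h with little or no fall on glycerol, limits in tiers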;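 also: stock transfer was 300 nL into about 50 µL; the organism is E. coli; final concentration not given here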
# Anaer choline gr early: recorded beside Anaer choline gr, whose call it bears; z-score; measured here: choline growth z-score, timepoint 1;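 score of optical density at 7 h as mean of two plates; lower means less growth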
# * hit, by the source's call; i = inactive; & = joins results of further samples.
SMILES,Anaer choline gr,Anaer choline gr early
Cc1ccc2c(c1)N(C(=O)Cn1c(=O)n(C3CC3)c(=O)c3nscc31)CCO2,i,-0.01
CCCc1nc(Nc2ccc(F)cc2)[nH]c(=O)c1Br,i,0.15
CCn1ccc2cc(S(=O)(=O)N3CCCN(C(=O)Nc4cccc(Cl)c4)CC3)ccc21,i,1.66
O=C(NCc1cccnc1)c1cccc(C(=O)NCc2cccnc2)n1,i,-0.61
CCN(CC)C(=O)C1CCCN(S(=O)(=O)c2cc(-c3noc(C4CC4)n3)sc2C)C1 (configuration not stated),i,0.26
O=c1cc(Cn2nc3c(-c4nc(-c5ccccc5)no4)cccn3c2=O)nc2ccccn12,i,0.05
Cc1ccc(C)c(OCC(O)Cn2c(C3CC3)nc3ccccc32)c1 (configuration not stated),i,0.11
Cc1ccc(NC(=O)CSc2nc3ccccc3c(=O)[nH]2)cc1,i,0.69
O=C(NCCN1CCCCC1)c1ccc(Cn2c(SCc3ccc(F)cc3)nc3cccnc32)cc1,i,1.16
Cc1ccc(/C=C/c2onc(C)c2S(=O)(=O)N2CCC(C(=O)N3CCC(N(C)C4CCCC4)CC3)CC2)cc1,i,1.06
CN(C)c1ccc(C(=O)N2CCC(N3CCN(Cc4ccc(F)cc4)C(=O)C3=O)CC2)cc1,i,-0.41
COc1cccc(NC(=O)C2=C(C)Nc3nc(SCc4ccc(Cl)cc4)nn3C2c2ccccc2)c1 (configuration not stated),i,0.23
COc1ccc(F)cc1-c1cc(N2CCN(C(=O)Nc3ccc4c(c3)OCCO4)CC2)ncn1,i,3.3
COc1cc(N2CCn3c(nc4ccccc43)C2)ccc1N,i,0.76
CCn1nc(C)c2c1c(=O)n(CCc1ccccc1)c(=O)n2CC(=O)N1CCCCC1C (configuration not stated),i,1.2
O=C(Nc1cccc(F)c1)c1nc(Nc2ccccc2)c2ccccc2n1,i,2.17
c1ccc(-c2noc(-c3cc(N4CCCC4)nc4ccccc34)n2)cc1,i,0.6
Cc1cn2c(=O)cc(COc3ccccc3NC(=O)C(C)C)nc2s1,i,-0.73
COc1ccc(C2CC(c3ccc(NS(C)(=O)=O)cc3)=NN2S(=O)(=O)c2ccc(OC)cc2)cc1 (configuration not stated),i,0
O=C(c1ccc(S(=O)(=O)c2ccc(Cl)cc2)nc1)N1CCN(c2ccccn2)CC1,i,0.13
Cc1cc(NC(=O)CCc2nc(CSc3n[nH]c(-c4ccccc4)n3)no2)ccc1Br,i,-0.1
Cc1nc(-c2ccc(C(=O)N3CCC(C(=O)Nc4ccc(Cl)cc4)CC3)cc2)no1,i,0.45
O=C(C1Nc2cc(F)ccc2S(=O)(=O)N1)N1CCN(c2cccc(Cl)c2)CC1 (configuration not stated),i,-0.31
COc1cccc(OC)c1C(=O)Nc1cc2c(cc1Sc1ccccc1)n(C)c(=O)n2C,i,-0.18
Cc1c(C(=O)Nc2ccc3c(c2)OCO3)sc2ncnc(N3CCCCC3C)c12 (configuration not stated),i,-1.23
CN(CC(=O)NCCc1c[nH]c2ccccc12)c1nn2c(NC(C)(C)C)c(-c3ccc(F)cc3)nc2s1,i,0.91
CN(C)c1ncc(NS(=O)(=O)c2ccccc2Cl)cc1C(=O)O,i,-0.91
Cn1c(=O)c2c(nc3n(Cc4ccc(F)cc4)c(-c4ccc(Cl)cc4)cn23)n(C)c1=O,i,0.33
Cc1cccc(NC(=O)c2oc3ccccc3c2NC(=O)c2cc(-c3ccccc3)on2)c1,i,1.26
O=C(Cn1nc(N2CCN(c3ccccc3)CC2)ccc1=O)NCCN1CCCC1,i,-0.56
CCCC(=O)C1=C(c2ccc(OC)c(OC)c2)N(C(=O)CCC)n2cnnc2S1,i,1.21
CC(C)Cc1nnc(NC(=O)Nc2ccc3ccccc3n2)s1,i,-0.03
O=C(NC1CCN(C(=O)C2CC2)C1)C1CC1 (configuration not stated),i,-0.31
CCCc1nnc2sc(-c3ccccn3)nn12,i,0.43
Cc1nnc(-c2cc(S(=O)(=O)NC3CCCCCCC3)c(C)n2C)o1,i,0.18
COc1cccc(CNC(=O)C(C)n2nc(C)c3sc4ccccc4c3c2=O)c1 (configuration not stated),i,0.44
CCC(Sc1nnc(-c2ccccc2NC(C)=O)c(=O)[nH]1)C(=O)Nc1ccc(C)cc1C (configuration not stated),i,-0.76
CC(C)NCC(O)COc1ccc(COCCOC(C)C)cc1 (configuration not stated),i,0.39&0&0.67&-0.14
Cc1cc(NC(=O)N2CCC(C)(C(=O)NCc3ccc4c(c3)OCO4)CC2)ccc1Br,i,0.65
COc1ccc(-c2c(C)nn3c(N4CCC(C(=O)NCCC(C)C)CC4)cc(C)nc23)cc1OC,i,-1

# Two of the compounds above, as labelled records.
SMILES: O=C(NC1CCN(C(=O)C2CC2)C1)C1CC1 (configuration not stated)
  Anaer choline gr: i
  Anaer choline gr early: -0.31
SMILES: CCCc1nnc2sc(-c3ccccn3)nn12
  Anaer choline gr: i
  Anaer choline gr early: 0.43

# Carrying on.
SMILES,Anaer choline gr,Anaer choline gr early
O=C(COc1cccc(-c2nc(-c3ccccc3)no2)c1)N1CCCC1,i,-1.92
Cc1ccc(C)c(NC(=O)CSc2ncnc3nc(N4CCCC4)sc23)c1,i,-0.46
O=C(NCc1csc(-c2ccccc2)n1)[C@H]1CSCN1C(=O)c1ccc(F)c(F)c1,i,1.29
O=c1c2ccccc2n2c(=O)n(Cc3ccccc3)nc2n1Cc1ccccc1,i,-0.12
CCC(C)NC(=O)c1cc(NS(=O)(=O)c2cc(C)c(C)cc2C)cnc1N1CCNCC1 (configuration not stated),i,0.33
COc1ccc(C2c3cccn3CCN2S(=O)(=O)c2ccc3c(c2)OCCO3)cc1 (configuration not stated),i,0.63
Cc1nn(-c2ccccc2)c2c1CN(C(=O)NC1CCCC1)C(c1ccc(N(C)C)cc1)c1cccn1-2 (configuration not stated),i,-1.82
CCC(C)NC(=O)CSc1nnc2n(CCC(=O)NC3CCCCC3)c(=O)c3ccccc3n12 (configuration not stated),i,-0.62
CCc1cc(C(Nc2ccccn2)c2ccsc2)c(NC(=O)c2ccccc2)s1 (configuration not stated),i,0.76
CCOC(=O)c1cc(CSc2nnc3c4ccccc4nc(-c4ccc(OC)cc4)n23)on1,i,-1.6
Clc1ccc(Cn2c(CN3CCCC3)nc3ccccc32)cc1,i,0.68&-0.44
CCc1cccc(NC(=O)c2cnc(N3CCOCC3)nc2)c1,i,0.32
CCCCn1c(-c2nnc(CCC)o2)cc2ccccc21,i,-0.65
CCC1=CC2CN(C1)Cc1c([nH]c3ccccc13)[C@@](C(=O)OC)(c1cc3c(cc1OC)N(C)C1[C@@](O)(C(=O)OC)C(OC(C)=O)[C@]4(CC)C=CCN5CC[C@]31C54)C2 (some centres not stated),i,0.79
COc1cc(OC)cc(C(=O)N2CCN(Cc3nc4cc(C(=O)N5CCCC5)ccc4n3C)CC2)c1,i,-0.03
C=CCOC(=O)C1=C(C)N(C)C(=O)NC1c1cn(-c2ccccc2)nc1-c1ccccc1 (configuration not stated),i,-0.38
COc1cc(OC)c(NC(=O)C2Oc3ccccc3NC2=O)cc1Cl (configuration not stated),i,-0.12
CC(C)Oc1ccc(NC(=O)C2CCCN(S(=O)(=O)Cc3ccccc3)C2)cc1 (configuration not stated),i,2.5
CCc1ccc(-c2cc(C(=O)N3CCN(C(=O)c4nsc5ccc(C)cc45)CC3)[nH]n2)cc1,i,-1.23
O=C(Nc1ccc(Br)cc1F)c1cc2ccccn2n1,i,0.69

# Whole records as entered above. Order of values: Anaer choline gr, Anaer choline gr early
# Record of O=C(NC1CCN(C(=O)C2CC2)C1)C1CC1 (configuration not stated) : i, -0.31
# Record of CCC(C)NC(=O)c1cc(NS(=O)(=O)c2cc(C)c(C)cc2C)cnc1N1CCNCC1 (configuration not stated) : i, 0.33
# Record of CCc1ccc(-c2cc(C(=O)N3CCN(C(=O)c4nsc5ccc(C)cc45)CC3)[nH]n2)cc1 : i, -1.23
# Record of O=C(c1ccc(S(=O)(=O)c2ccc(Cl)cc2)nc1)N1CCN(c2ccccn2)CC1 : i, 0.13
# Record of O=C(NCc1csc(-c2ccccc2)n1)[C@H]1CSCN1C(=O)c1ccc(F)c(F)c1 : i, 1.29

# Other structures follow:
SMILES,Anaer choline gr,Anaer choline gr early
Cc1ccc(S(=O)(=O)N(CCC(C)C)c2nc3nc(C)cc(C)n3n2)cc1,i,-0.27
CCCc1nc2nc3c(cn2n1)C(=O)CC(C)C3 (configuration not stated),i,-0.32
Cc1cccc(-c2csc(-c3nc(-c4cccc(F)c4)no3)c2-n2cccc2)c1,i,-0.63
CCCCOc1ccc(NC(=O)c2cc(=O)c3cc(CC)ccc3o2)c2cccnc12,i,2.04
CCCSc1nnc2n1CCN2c1ccccc1,i,-2.1
Cc1ccc(S(=O)(=O)NC2=NCN(CCCN3CCOCC3)CN2)cc1,i,0.31
O=C(NC1CCCC1)N1CC2CCCN2c2ccccc21 (configuration not stated),i,-1.31
OC1(c2ccc(Cl)cc2)CCN(Cc2c[nH]c3ccccc23)CC1,i,-2.54
O=C(Nc1cnn(-c2ncncc2N2CCCCC2)c1)C1CC1,i,0.94
CC(=O)N[C@@H](CC(=O)O)C(=O)N[C@@H](CCC(=O)O)C(=O)O,i,0.54
COc1ccccc1-c1csc(-c2nnn(-c3ccc(F)cc3)c2N)n1,i,-0.13
O=C(Nc1cccc(CCc2nc3ccccc3[nH]2)c1)c1cc(-c2ccncc2)nc2ccccc12,i,1.43
O=C(Nc1cccc(-c2ccc3ccccc3n2)c1)c1c(F)cccc1F,i,1.94
Cc1cc(=O)n2[nH]c(CN(C(=O)C(C)(C)C)c3ccc(Cl)cc3)nc2n1,i,-0.74
CCn1cnc(S(=O)(=O)N2CCC(C(=O)N3c4ccccc4CC3C)CC2)c1 (configuration not stated),i,-0.26
CCOC(=O)c1ccccc1NC(=O)Cn1c(=O)c(CNc2ccccc2)cc2ccc(OC)cc21,i,0.01
O=C(NCCc1c[nH]c2ccccc12)c1cccn1-c1cccnc1,i,-1.67
CN(C)c1ccc(C(CNC(=O)c2ccc3c(c2)OCO3)N(C)C)cc1 (configuration not stated),i,0.18
Cc1ccc(NC(=O)N2CCN(c3nnc(C)c4c(C)n(-c5ccccc5)nc34)CC2)c(Cl)c1,i,-0.29
Cc1sc2ncc(C(=O)NCC(C)C)c(=O)n2c1C,i,1.1
Cc1cc(C)c(S(=O)(=O)Nc2cc(C(=O)O)cnc2N2CCCC2)cc1C,i,-0.51
CCOc1ccc(-c2c(C)nn3c(C)c(C(=O)Nc4cc(Cl)c(OC)cc4OC)cnc23)cc1OCC,i,-1.85
CCOC(=O)C1CCN(c2c(Nc3ccc(OC)c(OC)c3)c(=O)c2=O)CC1,i,0.51
O=C1CC(c2ccccc2)c2cc3c(cc2N1)OCO3 (configuration not stated),i,-1.88
Cc1ccc(NC(=O)C2CCCN2S(=O)(=O)c2ccc3c(c2)CCCC(=O)N3)cc1N(C)C (configuration not stated),i,-0.32
O=C(NCc1cccnc1)c1cnc2sc(N3CCCCC3)nn2c1=O,i,-0.26
Cc1ccc(-c2noc3ncnc(NCC4CCCO4)c23)cc1 (configuration not stated),i,0.05
CC(c1nc2ccccc2n1C)N1CCCCC1 (configuration not stated),i,-0.84
CCc1nnc(NC(=O)CSc2ccc3nnc(-c4ccc(Cl)cc4)n3n2)s1,i,-0.21
CCOc1cc(-c2ccc(F)cc2)nc2ccc(C(=O)Nc3ccccc3O)cc12,i,-0.18
O=c1c(N2CCCCC2)csc2ccc(F)cc12,i,-1.55
Cc1cc(-c2cc(S(=O)(=O)N3CCCCC3C)c(C)s2)on1 (configuration not stated),i,0.53
Cc1csc(-c2cc(S(=O)(=O)Nc3ccc(C)c(C)c3)c(C)s2)n1,i,1.83
CC(C)c1ccccc1NC(=O)c1nc2nc(-c3ccc(F)cc3)cc(C(F)(F)F)n2n1,i,-0.47
COc1cc(CN2CCCC2c2cc(C(C)C)on2)ccc1OC(C)C (configuration not stated),i,0.66
COc1ccccc1N1CCN(C(=O)c2cc(N(C)S(=O)(=O)c3ccccc3)ccn2)CC1,i,0.72
CCN(CC)S(=O)(=O)c1ccc(-c2nc(C#N)c(N3CCN(C)CC3)o2)cc1,i,0.95
Cc1ccccc1-c1noc(-c2ccc[nH]c2=O)n1,i,-1.27
C=Cc1ccc(Cn2nc3n(CCC)c(=O)c4ccc(Cl)cc4n3c2=O)cc1,i,-0.39
CCn1cnnc1C1CCCN(Cc2cc(F)cc(F)c2)C1 (configuration not stated),i,-0.6
COc1ccc(NC(=O)NCc2c(C)nn(-c3ccccc3)c2-n2cccc2)cc1,i,-0.77
CC1COc2c(C3(N)CC3)c(F)cc3c(=O)c(C(=O)O)cn1c23 (configuration not stated),i,-2.45
CCCCNC(=O)CCc1c(C)n(C)c2nc(-c3ccccc3)nn2c1=O,i,-1.43
O=C(O)C1CC(=O)N(CCCN2CCOCC2)C1 (configuration not stated),i,0.23
CCCNC(=O)Nc1ccc(-c2noc(Cc3ccccc3Br)n2)cc1,i,-0.08

# Shown tab-delimited: part of the list above
Molecule	Anaer choline gr	Anaer choline gr early
CCCCNC(=O)CCc1c(C)n(C)c2nc(-c3ccccc3)nn2c1=O	i	-1.43
COc1ccc(NC(=O)NCc2c(C)nn(-c3ccccc3)c2-n2cccc2)cc1	i	-0.77

# These rows are one share of the data; rates above refer to the full screens.
